NS1 inh: blocks influenza NS1 protein function; Potency, µM (top dose mostly 46.1 µM), for inactives: at the highest dose activity, positive = more growth; 270,000 tested, 0.4% active; S. cerevisiae slowed by influenza A NS1, growth recovery by OD600; further: actives are rising curves; nearly all actives have a fitted effect of over 50% in size
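S. cerevisiae expressing influenza A NS1, grown in glucose, washed, then diluted 1:100 into pH 6.0 -URA galactose medium with 23 nl compound. Growth recovery read as OD600; NS1-free strain serves as control.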
RE007 growth inh: less growth of the S. pombe RE007 Vpr strain; S. pombe RE007 Vpr strain, BacTiter-Glo ATP luminescence, 24 h; control for the full effect not named in the record; Potency, µM (top dose mostly 92.2 µM), inactives show at the top dose activity change, negative = less growth; 360,000 tested, 0.21% active; active = well fitted falling curve with a large enough effect; inconclusive = small, poorly fitted or top-dose-only effect; inactive = no such curve, though single readings can be large or run the other way;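 further: on the % scale 0 is the no-effect control and ±100 the full control effect; nearly all actives have a fitted effect of over 50% in size; the assay follows cell death caused by Vpr and the record does not say whether a fall means rescue or toxicity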
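Fission yeast RE007 carrying one integrated HIV-1 vpr copy, seeded at OD 0.01 in PMG+AL medium with 23 nL pinned compound. Grown 24 h at 30 degrees; viability read by BacTiter-Glo luminescence after 5 min.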
MARV entry inh: blocks Marburg virus binding to or entry into cells; Marburg virus pseudotyped entry inhibition, cell reporter; control for the full effect not named in the record; about a third of the inactives were read at about 46 µM; Potency, µM (highest dose often 37.8 µM), for the others: top-dose activity change, negative = inhibition, actives largely listed as inhibitors; 300,000 tested, 1.8% active; AID 540276; active = well fitted inhibition curve with a large enough effect; inconclusive = small, poorly fitted or top-dose-only effect, or effect the other way; inactive = flat fitted curve, though single readings scatter; tested in HEK293 cells; about a fifth of its hits are not listed in these tables; further: on the % scale 0 is the no-effect control and ±100 the full control effect; luciferase read-out
Cruzain Triton: blocks cruzain activity in presence of Triton detergent. Potency, µM, without a hit: max response, negative = inhibition, hits mostly inhibitors. AID 1478. 200,000 tested, 0.43% active. purified cruzain, Z-FR-AMC fluorescence, 0.01% Triton. P25779; active means well fitted curve in the direction sought with a large enough effect; inconclusive means small, poorly fitted or top-dose-only effect, or another doubt; inactive means no such curve, though single readings can be large; an effect the other way counts as inactive or inconclusive;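 further: plate controls were neutral wells for no effect and buffer without enzyme for full effect; nearly all actives have a fitted effect of over 40% in size; top concentration of the series not given in the record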
Target sequence (P25779 123-467 limits assumed): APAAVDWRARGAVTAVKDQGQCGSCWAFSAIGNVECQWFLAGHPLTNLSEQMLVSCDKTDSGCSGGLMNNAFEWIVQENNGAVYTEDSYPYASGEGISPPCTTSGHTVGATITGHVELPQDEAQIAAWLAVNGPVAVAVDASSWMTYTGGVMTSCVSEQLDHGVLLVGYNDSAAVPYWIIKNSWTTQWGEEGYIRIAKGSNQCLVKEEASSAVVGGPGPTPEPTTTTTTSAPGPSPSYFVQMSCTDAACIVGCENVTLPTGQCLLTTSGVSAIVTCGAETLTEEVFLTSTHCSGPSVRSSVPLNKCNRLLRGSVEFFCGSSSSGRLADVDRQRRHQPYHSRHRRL
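Purified cruzain (1.5 nM final) was preincubated with compounds for 15 min at room temperature in 100 mM sodium acetate pH 5.5, 5 mM DTT, 0.01% Triton X-100. Reaction started with 2 uM Z-FR-AMC; AMC fluorescence change over 60 s gave activity.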
StopGo reporter: FMDV 2A StopGo reporter, luciferase signal. human cells with a luciferase reporter of 2A StopGo recoding; control for the full effect not named in the record. Potency, µM (series often up to 57.9 µM), inactives show top-dose signal change, negative = less light. 410,000 tested, 1.2% active; active = well fitted falling curve with a large enough effect; inconclusive = small, poorly fitted or top-dose-only effect; inactive = no such curve, though single readings can be large or run the other way; tested in HEK293T cells; further: on the % scale 0 is the no-effect control and ±100 the full control effect; nearly all actives have a fitted effect of over 45% in size; luciferase light after 4 h
Cruzain inh noDet: inhibitors of Trypanosoma cruzi cruzain without detergent. purified cruzain, Z-FR-AMC fluorescence, no detergent. Potency, µM, for inactives: max response, negative = inhibition, most hits filed as inhibitors. 200,000 tested, 2.3% active. AID 1476; active means well fitted curve in the direction sought with a large enough effect; inconclusive means small, poorly fitted or top-dose-only effect, or another doubt; inactive means no such curve, though single readings can be large; an effect the other way counts as inactive or inconclusive;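 further: plate controls were enzyme without inhibitor for no effect and buffer without enzyme for full effect; nearly all actives have a fitted effect of over 40% in size; top concentration of the series not given in the record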
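Purified cruzain at 1.5 nM, pre-incubated 15 min with compound at room temperature in 100 mM sodium acetate pH 5.5, 5 mM DTT, 0.00005% Triton X-100. Reaction started with 2 uM Z-FR-AMC; AMC fluorescence increase over 60 s gives rate.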
SARS PLP yeast: SARS-CoV PLP inhibition in yeast; 330,000 tested, 0.19% active; Potency, µM (titrated, usually from 32.9 µM), for inactives: top-dose activity, positive = growth rescue; AID 485353; S. cerevisiae expressing SARS-CoV PLpro, growth rescue; control for the full effect not named in the record; further: 0% is about no effect; nearly all actives have a fitted effect of over 55% in size; growth read by luminescence after 48 h
LASV entry inh: inhibitors of Lassa virus binding or cell entry. Lassa virus pseudotype entry inhibition, cell reporter; control for the full effect not named in the record. Potency, µM (titrated, usually from 37.9 µM), for inactives: at the highest dose activity change, negative = inhibition, hits mostly inhibitors. 300,000 tested, 1.2% active; active means well fitted inhibition curve with a large enough effect; inconclusive means small, poorly fitted or top-dose-only effect, or effect the other way; inactive means flat fitted curve, though single readings scatter; tested in HEK293 cells; further: on the % scale 0 is the no-effect control and ±100 the full control effect; nearly all actives have a fitted effect of over 50% in size; luciferase read-out
* hit, by the source's call; u = inconclusive; x = no result given; & = joins results of further samples; [ ] = dose if it differs, or a comment. Unless noted, the call rests on the fitted dose curve; in most records, active means well fitted rising curve with a large enough effect; inconclusive means small, poorly fitted or top-dose-only effect; inactive means no such curve, though single readings can be large or run the other way. Potency means the concentration at half of the fitted maximal effect. Outcome played no part in choosing rows, and some 4.7% of all compounds hit somewhere here.

SMILES	NS1 inh	RE007 growth inh	MARV entry inh	Cruzain Triton	StopGo reporter	Cruzain inh noDet	SARS PLP yeast	LASV entry inh
CC(=O)Nc1ccc(NC(=O)c2ccc(CSc3ccccc3)o2)cc1	x	-7%	27%[46.1 µM]	x	0%	x	1%	18%
COC(=O)c1c(SCC(=O)Nc2ccc(C)c(C)c2)nc(=O)[nH]c1C	3%	10%	x	x	-15%	x	0%	x
COc1ccc(CCNC(=O)COC(=O)C2CCCCC2)cc1	-14%	-13%	u	-6.1%	-9%	-8%	-5%	0%
CN(C)c1ccc(C(=O)Nc2sc(Nc3ccccc3)nc2C(N)=O)cc1	x	x	x	-0.3%	0%	-23%	x	-28%[46.1 µM]
CCOC(=O)CSc1nc2sc3c(c2c(=O)[nH]1)CC(C)(CC)OC3 (stereo not drawn)	3%	3%	12%	2.8%	-17%	6%	7%	21%
COc1ncccc1-c1nnn(-c2ccccc2)n1	-7%	-6%	x	x	38%[activator]	x	-2%	x
CCOc1cc(/C=N/Nc2ccccc2Cl)ccc1OCC(=O)O	-9%	x	0%	-7.4%	13%	u	-6%	12%
Clc1cccc(/C=N/Nc2nc(Cl)nc3ccccc23)c1	14%	-1%	7%	-10%	40%[activator]	u	-6%	u
Cc1c(CNC2CCCC(C)C2C)c(C(=O)O)c(C)n1Cc1ccccc1 (stereo not drawn)	25%	-11%	x	1.0%	x	6%	8%	x
Cc1c(-c2ccc(Cl)cc2)c(=O)oc2c(CN3CCCC3)c(O)ccc12	x	x	x	-16%	28%	-28%	x	23%[46.1 µM]
CCNC(=O)c1c(NC(=O)c2nc(S(=O)(=O)CC)ncc2Cl)sc2c1CCCC2	x	x	2%[46.1 µM]	-3.8%	u	-12%	x	7.9µM*
CN1CCN(CC(=O)N/N=C/c2ccc(F)c(F)c2)CC1	9%	4%	u	-1.6%	-17%	1%	1%	6%
NC(=O)CC[C@H](NC(=O)c1ccc(F)cc1)C(=O)OCC(=O)Nc1ccc(N2CCOCC2)cc1	-6%	23%	u	25µM*	3%	u	u	-17%
CCN1CCc2nc3sc(C(=O)c4ccccc4)c(N)c3cc2C1	x	x	u	-10%	34%[activator]	-9%	x	31%[46.1 µM]
COc1ccc(S(=O)(=O)N2CCOC2CNC(=O)C(=O)NCc2ccc3c(c2)OCO3)cc1 (stereo not drawn)	x	-4%	10%	x	-25%	x	x	-3%
Cn1c(O)c(/C=N/Nc2ccccc2)c(=O)n(C)c1=O	x	236%	u	x	-20%	x	0%	u
CCN(CC)CC(C)OC(=O)COc1ccc(OC)cc1 (stereo not drawn)	18%	8%	1%	0.4%	-9%	-3%	-8%	-1%
CCCCCCC[C@H](N)[C@H](O)C(=O)N(C)[C@@H](CCS(C)=O)C(=O)N[C@@H](Cc1ccc(O)cc1)C(=O)N[C@@H](Cc1ccc(O)cc1)C(=O)O (stereo partly drawn)	10%	70%	x	x	2%	x	2%	x
CC1(C)N=C(SCc2ccc(Cl)cc2)c2ccccc2N1	x	x	x	-5.8%	0%	-1%	x	13%[46.1 µM]
O=C(CCl)Nc1cn(-c2ccccc2)nc1-c1ccccc1	x	-3%	16µM*	x	20µM*	x	-5%	4.1µM*
O=C(CSc1cccc[n+]1[O-])Nc1cc(S(=O)(=O)N2CCOCC2)ccc1N1CCOCC1	11%	-15%	3%	-0.7%	18%	-2%	-9%	u
CC(C)=CC(=O)Nc1ccc(Br)cc1	-42%	-5%	-25%	-3.0%	x	-5%	-10%	9%
O=C(Nc1ccccc1)Nc1ccccc1C(=O)NCc1ccco1	-8%	-13%	17%	0.2%	x	6%	-2%	18%
CN(C)CC(C)(C)CNCc1cc(=O)oc2ccc3ccccc3c12	-2%	-19%	u	x	-9%	x	-4%	u
CCOC(=O)c1ccc2ncc(C(=O)OCC)c(NCCN3CCOCC3)c2c1	-15%	0%	x	x	-18%	x	1%	x
Nc1[nH]c(N=NC(=O)c2ccc(F)cc2)c2ccccc12	25%	8%	u	-21%	-23%	0%	19%	-26%
COc1cc(C2Nc3ccccc3-c3cc(C)nn32)ccc1O (stereo not drawn)	x	x	28%[46.1 µM]	-1.0%	-29%	4%	x	8%[46.1 µM]
O=C(CCc1ccccc1)Nc1cccc(NC(=O)CCc2ccccc2)c1	3%	-17%	-17%	-6.2%	-16%	-9%	-8%	-13%
CC(C)(C)CC(C)(C)c1ccc(OCC(=O)Nc2ccc(S(=O)(=O)Nc3ncccn3)cc2)cc1	x	x	x	1.1%	-18%	-9%	x	-2%[46.1 µM]
N/C(=N\NS(=O)(=O)c1ccccc1Cl)c1ccccn1	x	11%	1%[46.1 µM]	x	40%[activator]	x	x	4%[46.1 µM]
CCOc1ccc(C(=O)CCN2CCCCC2)cc1	u	35µM*	-8%	-14%	-18%	-9%	11%	4%
Cc1ccc(-c2cc(C(=O)Nc3ccc(SC(F)F)cc3)no2)cc1F	x	x	1%[46.1 µM]	-8.2%	13%	5%	x	u
CC1CCN(S(=O)(=O)c2ccc(NC(=O)Cc3ccccc3)cc2)CC1	4%	13%	u	-0.2%	x	-3%	-16%	-14%
COc1ccc(C2/C=C\CN(C(=O)OCC3c4ccccc4-c4ccccc43)CC(=O)N2Cc2cccc(F)c2)cc1 (stereo not drawn)	x	-2%	x	-1.6%	-26%	25µM*	-10%	x
COc1ccc(CCNC(=O)Cn2cnc3c2c(=O)n(C)c(=O)n3C)cc1OC	6%	2%	-1%	2.5%	27%	-5%	2%	-5%
O=C(CNc1cccc(Cl)c1)c1ccc(Br)cc1	-34%	-4%	x	x	58%[activator]	x	-6%	x
CC1CCCCN1C(=O)CSc1nc2cc3c(cc2c(=O)n1Cc1ccc2c(c1)OCO2)OCO3 (stereo not drawn)	-9%	0%	u	0.4%	-6%	u	-2%	u
CCSC(=Nc1ccccc1)N1CCOCC1	x	-16%	2%[14.2 µM]	x	2%	x	x	0%
CCCCCC#CCC#CCC#CCC#CCCCC(=O)O	7%	x	-26%&-26%&-26%&-26%&-26%	-4.2%	-11%[6.7 µM]	u	-3%	2%
COC(Cc1n[nH]c(=S)n1-c1ccc(Cl)cc1)OC	18%	5%	26%	12%	7%	-2%	3%	-12%
C/C(=N\Nc1cccc(Cl)c1)c1ccc(-n2ccnc2)cc1	4%	47%	-23%	-6.3%	0%	u	-22%	-16%
CCCn1c(CNC(=O)c2ccccc2)nc2ccccc21	-10%	15%	-1%	-6.2%	6%	1%	4%	9%[14.3 µM]
CN1CCN(c2ccccc2/C=C2/C(=O)Nc3ccccc32)CC1	1%	-5%	x	x	u	x	-2%	x
O=C(C1CCC1)N1CCc2cc(S(=O)(=O)NCc3ccco3)ccc21	3%	6%	u	2.1%	37%[activator]	-3%	4%	-3%
O=C(COc1ncnc2scc(-c3ccccc3)c12)NC1CCCc2ccccc21 (stereo not drawn)	1%	u	6%	-6.7%	1%	u	13%	u
COc1ccc(OCc2nc(-c3ccc(-n4cccc4)cc3)no2)cc1	x	x	x	2.2%	-25%	-11%	x	-12%[46.1 µM]
O=S(=O)(Nc1cc(S(=O)(=O)N2CCOCC2)ccc1N1CCCC1)c1cccs1	x	0%	u	x	39%[activator]	x	-1%	1%[46.1 µM]
Cc1nnc(SCC(=O)NC(=O)NCc2ccco2)s1	4%	-4%	x	x	4%	x	2%	x
Cc1cccc(C(=O)Nc2ccc(OCc3cc(=O)n4c5c(sc4n3)CCCC5)cc2)c1	x	x	-15%[46.1 µM]	-0.4%	-9%	7%	x	-4%[46.1 µM]
Cc1nccn1CCCN1C(=O)CNC1=S	19%	u	u	0.4%	52%[activator]	8%	4.5µM*	-3%
O=C(COC(=O)c1ccc2c(c1)OCO2)Nc1nc(-c2ccccc2)cs1	1%	6%	14%[46.1 µM]	x	0%	x	0%	-7%[46.1 µM]
COc1ccc(NC(=O)CN2C(=O)NC3(CC(C)CC(C)(C)C3)C2=O)cc1S(=O)(=O)N1CCCCC1 (stereo not drawn)	x	-14%	u	x	-13%	x	x	-6%
CCCNC(=O)N1CCCC(C(=O)c2cccc(Cl)c2)C1 (stereo not drawn)	2%	15%	x	x	-3%	x	0%	x
Cc1nnc(SCC(=O)NC2CCS(=O)(=O)C2)n1-c1ccccc1 (stereo not drawn)	x	-11%	7%[46.1 µM]	x	4%	x	-1%	6%
COC(=O)COc1ccc2oc(=O)cc(-c3cc4cccc(OC)c4o3)c2c1	6%	3%	13%[46.1 µM]	x	u	x	-2%	-14%[46.1 µM]
c1cnc2nc(CSc3ncn[nH]3)cn2c1	x	12%	0%[46.1 µM]	x	18%	x	2%	x
COc1ccccc1NS(=O)(=O)c1ccc2oc(SCc3ccc(C#N)cc3)nc2c1	5%	7%	u	-5.1%	u	u	8%	u
COc1ccccc1CC(=O)Nc1ccc(S(=O)(=O)N2CCCCC2)cc1	0%	13%	3%[46.1 µM]	x	2%	x	-3%	x

4 entries already listed, sorted by number of heavy atoms, low to high:
SMILES	NS1 inh	RE007 growth inh	MARV entry inh	Cruzain Triton	StopGo reporter	Cruzain inh noDet	SARS PLP yeast	LASV entry inh
Cc1nnc(SCC(=O)NC(=O)NCc2ccco2)s1	4%	-4%	x	x	4%	x	2%	x
CCCNC(=O)N1CCCC(C(=O)c2cccc(Cl)c2)C1 (stereo not drawn)	2%	15%	x	x	-3%	x	0%	x
COC(=O)COc1ccc2oc(=O)cc(-c3cc4cccc(OC)c4o3)c2c1	6%	3%	13%[46.1 µM]	x	u	x	-2%	-14%[46.1 µM]
Cc1cccc(C(=O)Nc2ccc(OCc3cc(=O)n4c5c(sc4n3)CCCC5)cc2)c1	x	x	-15%[46.1 µM]	-0.4%	-9%	7%	x	-4%[46.1 µM]

Compound activity as filed in PubChem.
